# PKM2 activator: qHTS Assay for Activators of Human Muscle isoform 2 Pyruvate Kinase | purified PKM2, Kinase-Glo ATP luminescence, activation; response scale: 0% is enzyme alone, no compound | Potency, µM (top dose mostly 57.5 µM), for inactives: at the top dose activation, actives largely listed as activators | 0.34% of 260,000 active | AID 1631, 2009; also: potency is read from the fitted curve at half-maximal effect; % is scaled to controls: 0 for no effect and ±100 for the full control effect; nearly all actives have a fitted effect of over 55% in size
# Target sequence (P14618 whole entry, looked up, canonical isoform): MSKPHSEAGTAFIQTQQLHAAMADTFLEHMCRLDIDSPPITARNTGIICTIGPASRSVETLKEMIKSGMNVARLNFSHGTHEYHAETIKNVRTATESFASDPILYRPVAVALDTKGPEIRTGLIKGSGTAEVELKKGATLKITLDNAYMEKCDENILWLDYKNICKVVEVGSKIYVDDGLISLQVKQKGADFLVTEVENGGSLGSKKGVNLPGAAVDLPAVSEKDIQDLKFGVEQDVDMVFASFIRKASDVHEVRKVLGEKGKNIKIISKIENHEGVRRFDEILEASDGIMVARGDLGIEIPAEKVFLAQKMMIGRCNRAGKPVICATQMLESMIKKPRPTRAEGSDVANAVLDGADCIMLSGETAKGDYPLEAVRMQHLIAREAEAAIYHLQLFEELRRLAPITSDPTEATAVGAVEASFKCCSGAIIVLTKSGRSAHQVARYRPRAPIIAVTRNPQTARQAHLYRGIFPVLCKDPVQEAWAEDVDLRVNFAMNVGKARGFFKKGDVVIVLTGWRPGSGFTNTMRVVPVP
#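 Kinase-Glo luminescence reports ATP generated from ADP (0.1 mM) and PEP (0.5 mM) by purified hPK-M2 after 1 h at room temperature, pH 7.2 imidazole buffer; intermediate enzyme activity allows detecting inhibitors and activators.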
# Giardia kill: Small Molecules that selectively kill Giardia lamblia: qHTS. Giardia lamblia trophozoite viability. 0.15% of 340,000 active. activity change, % at 7.66 µM, hits read low; in the data active = activity change below about -80%; inconclusive = between about -30% and that limit;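 also: parasites exposed to compound for two days anaerobically before the ATP read; % is scaled to controls: 0 for no effect and ±100 for the full control effect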
#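 Luminescence from cellular ATP indicates surviving trophozoites (100 cells/well) following 48 hrs anaerobic compound treatment at 37 deg C; signal develops 15-30 min at room temperature.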
# BRCA1 expr up: qHTS Assay to Identify Small Molecule Activators of BRCA1 Expression. MCF7-BRCA1-FFLuc reporter, luminescence, 48 h; response scale: scaled: vehicle 0%, 10 µM genistein 100%. Potency, µM (highest dose often 46.1 µM), for inactives: at the highest dose activation, hits mostly activators. 1.1% of 380,000 active; also: potency is read from the fitted curve at half-maximal effect; nearly all actives have a fitted effect of over 80% in size; some results filed as inactive show a strong effect at the top dose
#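 Activators of BRCA1 expression were detected as increased firefly luciferase luminescence in engineered MCF7 cells after 48 h compound incubation. Signals were scaled to genistein 10 microM as full activation.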
# VP16 counter: VP16 counterscreen qHTS for inhibitors of ROR gamma transcriptional activity; Potency, µM (top dose mostly 53.6 µM), for inactives: at the top dose activity, negative = inhibition, most hits filed as inhibitors; Drosophila S2 Gal4-VP16 UAS-luciferase, luminescence, 20 h; 3.5% of 310,000 active;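 also: Gal4-VP16 expression switched on by copper sulfate through the metallothionein promoter; potency is read from the fitted curve at half-maximal effect; % is scaled to controls: 0 for no effect and ±100 for the full control effect; nearly all actives have a fitted effect of over 50% in size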
# Rab9 prom act: qHTS Assay for Rab9 Promoter Activators; Huh7 Rab9 promoter-luciferase reporter, luminescence, 24 h; Potency, µM (titrated, usually from 9.22 µM), for the others: at the top dose activation, negative = inhibition, actives largely listed as activators; 2.8% of 320,000 active; AID 485297, 2010; also: potency is read from the fitted curve at half-maximal effect; % of control where 0% means no effect; nearly all actives have a fitted effect of over 60% in size
#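 Measured in stably transfected Huh7 cells bearing a Rab9 promoter–luciferase construct: 24 h compound treatment at 37 °C, followed by luminescence detection.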
# NPC1 prom act: qHTS Assay for NPC1 Promoter Activators. Potency, µM (highest dose often 9.22 µM), for the others: at the highest dose activation, hits mostly activators. 2.4% of 320,000 active. Huh7 NPC1 promoter luciferase reporter, 24 h;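 also: potency is read from the fitted curve at half-maximal effect; % of control where 0% means no effect; nearly all actives have a fitted effect of over 60% in size; reporter is driven by a mutant NPC1 promoter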
#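 Quantitative HTS used a cell-based reporter: Huh7 cells stably bearing the NPC1 promoter upstream of luciferase were treated with compounds for 24 h, and promoter activation was read as luminescence.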
# RORg inh: qHTS for inhibitors of ROR gamma transcriptional activity. Nuclear receptor ROR-gamma (Mus musculus), P51450. Drosophila S2 Gal4-RORgamma UAS-luciferase reporter, 20 h. Potency, µM (highest dose often 53.6 µM), without a hit: top-dose activity change, negative = inhibition, most hits filed as inhibitors. 5.4% of 310,000 active. AID 2551, 2010; also: potency is read from the fitted curve at half-maximal effect; % is scaled to controls: 0 for no effect and ±100 for the full control effect; nearly all actives have a fitted effect of over 60% in size
#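 Stably transfected Drosophila Schneider cells are the test system, with ROR gamma fused to Gal4 and luciferase under UAS control; luminescence is read after 20 hr of 700 uM copper sulfate induction at ambient temperature.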
# p53 reactivator: qHTS assay for re-activators of p53 using a Luc reporter; H1299 p53-A138V BP100-luciferase reporter, luminescence, 24 h; Potency, µM (top dose mostly 92.2 µM), without a hit: at the highest dose activity change, positive = activation, usual class: activators; 0.063% of 320,000 active; AID 504706, 2011; also: potency is read from the fitted curve at half-maximal effect; % of control where 0% means no effect; nearly all actives have a fitted effect of over 45% in size
#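 H1299 (p53-null), stable ts p53-A138V + BP100-Luc; 1000 cells/well, Opti-MEM/10% FBS; cpd 4 pt, 1:5; 24 h, 37 deg C, 5% CO2; detection reagent 10 min RT; luminescence.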
# ELG1 genotox: qHTS screen for small molecules that induce genotoxicity in human embryonic kidney (HEK293T) cells expressing luciferase-tagged ELG1; AID 504466, 2011; HEK293T ELG1-luciferase reporter, luminescence, 16 h; 1.3% of 330,000 active; Potency, µM (series often up to 46 µM), for the others: at the top dose activity change, positive = activation, hits mostly activators; also: potency is read from the fitted curve at half-maximal effect; % of control where 0% means no effect; nearly all actives have a fitted effect of over 60% in size
#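 HEK293T cells expressing luciferase-tagged ELG1 were treated with compound or DMSO for 16 hr at 37°C. Luciferase activity was then read after 30 min with ONE-Glo at room temperature; rising signal flags genetic stress.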
# An asterisk follows results filed as active; ? = inconclusive; / = not tested or not shown; & = joins results of further samples; ! = a repeat was not active; [ ] = remark or other dose. Unless noted, calls follow the shape of the dose curve; as a rule, active = well fitted curve in the direction sought with a large enough effect; inconclusive = small, poorly fitted or top-dose-only effect, or another doubt; inactive = no such curve, though single readings can be large; an effect the other way counts as inactive or inconclusive. These rows are one share of the data. The share of hits here may be higher or lower than overall.
SMILES,PKM2 activator,Giardia kill,BRCA1 expr up,VP16 counter,Rab9 prom act,NPC1 prom act,RORg inh,p53 reactivator,ELG1 genotox
CC(C)[C@H](NC(=O)c1ccccc1)C(=O)OCC(=O)c1ccc2c(c1)NC(=O)CO2,-1%,-3,4%,1%,0%,2%,1%,1%,4%
CCOC(=O)c1c(-c2ccccc2)nnn1-c1nc(OC)nc(N2CCOCC2)n1,1%,-1,-10%,-2%,-1%,-3%,13%,13%,-2%
CC1=C(C(=O)Nc2ccccn2)C(c2cccnc2)n2nnnc2N1 (configuration not stated),2%,9,36%,-1%,7%,2%,7%,-9%,3%
CC(C)N(C(=O)c1ccc2nc(-c3ccccc3)c(-c3ccccc3)nc2c1)C(C)C,-3%,7,-42%,?,-8%,-3%,13%,4%,-2%
O=C(O)CN1C(=O)SC(Nc2ccc(Cl)cc2)C1=O (configuration not stated),8%,-29,1%,0%,-3%,1%,0%,1%,9%
COc1cccc(/C=N\n2c(C)nnc2C)c1OC,6%,0,-19%,-8%,5%,2%,-34%,12%,1%
Cc1nnc(NC(=O)CSc2nnc(CCNC(=O)c3ccccc3F)n2C)s1,/,7,6%,1%,6%,-1%,0%,5%,2%
O=S(=O)(NCc1ccc2c(c1)OCO2)c1ccccc1F,-6%,2,13%,8%,4%,9%,-1%,-30%[inhibitor],-3%
CCCCCn1ccc(=O)c2c(C(F)(F)F)nccc21,-2%,7,-47%,?,-11%,-8%,?,-10%,-9%
CC(=O)O[C@H]1c2ccccc2-c2ccccc2[C@@H]1OC(C)=O,0%[11.5 µM],5,25%,-2%,-1%,-2%,-7%,23%,2%
CCNC(=O)N1C(=O)C2(OCCO2)c2ccccc21,-1%,-20,10%,1%,-10%,-2%,1%,2%,3%
C=CCn1c(CCNC(=O)c2ccccc2F)nnc1SCC(=O)Nc1ccc(OC)cc1,-9%,2,4%,5%,1%,10%,21%,-4%,0%
CCOC(=O)/C(=N/O)C1=NC(C)(C)Cc2cc(C)c(C)cc21,-8%,2,-12%,-3%,1%,-4%,-11%,-1%,-3%
CCCC(=O)NCCc1cc(OC)c(OC)cc1Br,0%,1,-1%,-3%,0%,1%,-3%,0%,-1%
CC(C)C(C)(C#N)NC(=O)CSc1nnc(C(F)(F)F)n1C (configuration not stated),-7%,-9,4%,-13%,9%,1%,-9%,-20%,-3%
CCN1CCCC1CNS(=O)(=O)c1ccc(Cl)c(C(F)(F)F)c1 (configuration not stated),-14%,-7,-22%,10%,15%,-2%,-7%,1%,0%
COc1ccccc1C(CC(=O)Nc1ccc(Cl)cc1)c1ccc(OC(C)C)cc1 (configuration not stated),-22%,-8,-25%,-25%,-3%,6%,-1%,-6%,0%
OCC(O)CSc1nc(-c2ccccc2)nc2c1CCC2 (configuration not stated),-1%,-1,1%,2%,-2%,-1%,4%,-6%,2%
O=C(Nc1nnc(CCN2CCOCC2)s1)c1ccccc1,-6%,-2,10%[1.84 µM],10%,20%,17%,0%,29%,?
COc1ccccc1NC(=O)C(=O)N(c1cccnc1)C(C(=O)NC(C)(C)C)c1ccccc1 (configuration not stated),-29%,-4,-12%,-2%,4%,0%,23%,2%,-1%
Cc1cccc(-c2noc(-c3ccc(F)cc3)n2)c1,-16%,-10,?,?,0.22µM*,0.1µM*,?,32µM*,?
Cc1ccc(/C=C2/Sc3ccc(C(=O)N4CCN(c5ccccn5)CC4)cc3NC2=O)cc1,-3%,-4,14%,-13%,-2%,-5%,1%,-1%,-4%
Cc1sc2ncn(CC(=O)NCCCC(=O)N3CCN(c4ccccc4)CC3)c(=O)c2c1C,-4%,2,-11%,-8%,-1%,-19%,-5%,4%,-1%
COc1ccc(-c2cc(CNC(=O)CN3CCN(C)CC3)on2)cc1,-1%,-4,18%,-8%,-4%,1%,-9%,8%,-1%
O=C1N(CN2C(=O)C3(OCCO3)c3ccccc32)c2ccccc2C12OCCO2,3%,35[activator],-25%,-1%,-5%,-1%,-26%,-6%,2%
CN1CCN(C(=O)c2ccc3c(c2)NC(=O)/C(=C/c2ccccc2)S3)CC1,/,29,-21%,-2%,-3%,-17%,17%,-10%,3%[9.26 µM]
CCc1cccc(N(C)C(N)=Nc2cccc3ccccc23)c1,-10%,9,-2%,5%&-1%,-25%[46.1 µM],-18%[46.1 µM],20%&9%,-7%,-15%
Cc1cc(C)c(C(=O)N2CCCC(CNC(=O)C3(c4ccc(Cl)cc4)CC3)C2)c(=O)[nH]1 (configuration not stated),10%,-20,-3%,-4%,-3%,-2%,-5%,-5%,1%
CN1CCN(CCCN2c3ccccc3Sc3ccc(C(F)(F)F)cc32)CC1,0%&4%,-22&-8&-1,-50%&-53%&-22%,14µM*!,-44%[inhibitor][46.1 µM],-37%[inhibitor][46.1 µM],?,-4%,-6%

# A second format for some results above:
# Values run as follows: PKM2 activator	Giardia kill	BRCA1 expr up	VP16 counter	Rab9 prom act	NPC1 prom act	RORg inh	p53 reactivator	ELG1 genotox
CCCCCn1ccc(=O)c2c(C(F)(F)F)nccc21
 : -2%	7	-47%	?	-11%	-8%	?	-10%	-9%
CC(=O)O[C@H]1c2ccccc2-c2ccccc2[C@@H]1OC(C)=O
 : 0%[11.5 µM]	5	25%	-2%	-1%	-2%	-7%	23%	2%
CCNC(=O)N1C(=O)C2(OCCO2)c2ccccc21
 : -1%	-20	10%	1%	-10%	-2%	1%	2%	3%
C=CCn1c(CCNC(=O)c2ccccc2F)nnc1SCC(=O)Nc1ccc(OC)cc1
 : -9%	2	4%	5%	1%	10%	21%	-4%	0%
CCOC(=O)/C(=N/O)C1=NC(C)(C)Cc2cc(C)c(C)cc21
 : -8%	2	-12%	-3%	1%	-4%	-11%	-1%	-3%
CCCC(=O)NCCc1cc(OC)c(OC)cc1Br
 : 0%	1	-1%	-3%	0%	1%	-3%	0%	-1%
CC(C)C(C)(C#N)NC(=O)CSc1nnc(C(F)(F)F)n1C (configuration not stated)
 : -7%	-9	4%	-13%	9%	1%	-9%	-20%	-3%
CCN1CCCC1CNS(=O)(=O)c1ccc(Cl)c(C(F)(F)F)c1 (configuration not stated)
 : -14%	-7	-22%	10%	15%	-2%	-7%	1%	0%
COc1ccccc1C(CC(=O)Nc1ccc(Cl)cc1)c1ccc(OC(C)C)cc1 (configuration not stated)
 : -22%	-8	-25%	-25%	-3%	6%	-1%	-6%	0%
OCC(O)CSc1nc(-c2ccccc2)nc2c1CCC2 (configuration not stated)
 : -1%	-1	1%	2%	-2%	-1%	4%	-6%	2%
O=C(Nc1nnc(CCN2CCOCC2)s1)c1ccccc1
 : -6%	-2	10%[1.84 µM]	10%	20%	17%	0%	29%	?
COc1ccccc1NC(=O)C(=O)N(c1cccnc1)C(C(=O)NC(C)(C)C)c1ccccc1 (configuration not stated)
 : -29%	-4	-12%	-2%	4%	0%	23%	2%	-1%

# Compound activity (PubChem)
